Assay outcomes (PubChem)
Sa ugtP lethal: kills S. aureus RN4220 lacking UgtP; S. aureus RN4220 ugtP deletion, OD600 growth, 16 h; some inactives read as strong as hits; growth inhibition, % (no concentration beside the values); 0.54% of 330,000 active; AID 1259309;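 active = z-score under -3 and OD600 up to 0.15 on both plates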;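 note: plate controls were untreated wells for no effect and antibiotic for full effect; wells of about 80 µL received 100 nL stock; the first replicate is given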
Bead autofluor: compound fluorescence in toxin protease inhibitor counterscreen; compound autofluorescence counterscreen, microsphere flow cytometry; active compounds read high; fluorescence intensity (no concentration beside the values); 3.1% of 360,000 active; AID 624483;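 active = at least 3 SD above the mean of all compounds, about 16000 in these data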;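 note: 100 nL of 1 mM stock went into each well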
BJeLR viability: BJeLR cell viability loss; BJeLR (HRASV12) viability, CellTiter-Glo ATP luminescence, 48 h; reference of the scale not given here; inhibition, % (test concentration not listed); 0.17% of 300,000 active; AID 1554;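 active = replicate mean above 50%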;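 note: 50 nL library stock added to about 25 µL; numbers are from one replicate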
Mtb hypoxia rep: inhibitors of hypoxia-regulated fluorescent reporter in Mycobacterium tuberculosis; AID 1159583; fluorescence inhibition, % (test concentration not listed); 0.1% of 300,000 active; M. tuberculosis hypoxia-regulated fluorescent reporter, fluorescence;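 active = 35 to 45% if threefold the growth effect, above 45% if 1.5-fold the growth effect; inactive = the rest, general growth blockers included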;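 note: wells of about 50 µL received 100 nL stock; 0% = vehicle wells and 100% = reference inhibitor wells; whole bacteria with a GFP reporter of the hypoxia response; strong numbers were not always called active; many hits fall short of the cut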
Sa RN4220 lethal: kills Staphylococcus aureus RN4220; S. aureus RN4220 growth, OD600, 16 h; inhibition, % (no concentration beside the values); 0.33% of 330,000 active;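 active = z-score of -3 or lower and OD600 up to 0.18 on both plates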;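 note: plate controls were untreated cells for no effect and reference antibiotic for full effect; stock transfer was 100 nL into about 80 µL; one replicate is shown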
PrP 5UTR inh: suppresses PrP 5' UTR mRNA reporter expression; cell-based PrP 5' UTR mRNA reporter, plate reader; 0.35% of 340,000 active; AID 488862; inhibition, % (test concentration not listed);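 active = every replicate at 50% or more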;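 note: 0 = median of the neutral control wells; tested in H4 reporter cells; numbers are from one replicate; inactives centre near -14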
Mtb hypoxia rep growth: recorded beside Mtb hypoxia rep, whose call it bears; growth inhibition, %; measured here: M. tuberculosis growth (absorbance);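 0% = vehicle and 100% = reference antibiotic; read after six days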
* = called active by the depositor; . = not tested or not shown; & = joins results of further samples.

SMILES	Sa ugtP lethal	Bead autofluor	BJeLR viability	Mtb hypoxia rep	Mtb hypoxia rep growth	Sa RN4220 lethal	PrP 5UTR inh
CC1CCN(CC(=O)NC2CCCCC2)CC1	6	3146	-7	17	16	4.4	7
COc1cc(C=NNC(=O)Cc2cccs2)c([N+](=O)[O-])cc1OC	6	.	.	3	1	6.9	.
O=c1c2c(O)cc(O)cc2oc2c(O)ccc(OC3OC(CO)C(O)C(O)C3O)c12 (centres undefined)	-11	.	.	8	4	8.7	.
CCOC(=O)c1[nH]cnc1C(=O)Nc1ccccc1OC	4	3833	-10	-2	6	6.4	-5
O=C(NN=Cc1cn[nH]c1-c1ccccc1)c1cccs1	0	.	.	14	-5	-3.4	.
CCCn1c(NC(=S)Nc2ccccc2)nc2ccccc21	-4	2472	-5	12	20	3.9	9
O=c1c2ccccc2nnn1CSc1nnc(-c2cccc(S(=O)(=O)N3CCCCC3)c2)o1	-1	4562	4	18	12	2.7	-10
CC(C)N(C(=O)N1CCC(c2nc(-c3ccncc3)no2)CC1)C(C)C	1	10822	-4	1	5	4.8	-13
CCN1C(=O)C(CC(=O)Nc2ccc(OC)cc2)N(CCCN2CCN(c3ccc(OC)cc3)CC2)C1=S (centres undefined)	1	4474	-4	3	-3	-4.3	-24
CCCN(Cc1cc2cc(C)ccc2[nH]c1=O)C(=O)c1ccccn1	-2	4900	-2	12	8	2.8	-19
Cc1cc(C)n(-c2ccc(Cl)c(C(=O)O)n2)n1	-1	3597	0	.	.	5.6	-2
O=C(CCCC(=O)N1CCN(c2ccccc2F)CC1)c1ccccc1	-12	4463	-10	.	.	-3.5	-30
N#Cc1c(N2CCCCC2)nc(N2CCCCC2)c2c1CCN(Cc1ccccc1)C2	19	18858*	0	3	1	-4.3	-23
CN(C)S(=O)(=O)c1ccc(Cl)c(NC(=O)COC(=O)CCC2CCCCC2)c1	2	3911	.	11	1	2.4	-25
Cc1ccc(S(=O)(=O)NCC(=O)N(CC(=O)NCc2ccco2)Cc2ccccc2)cc1	3	5570	-4	15	-2	0.2	-12
CCN(CC)C(=S)Nc1ccc(OC(F)F)cc1	1	4503	-7	-7	-20	0.5	-14
NC(=O)[C@@H]1CC2(CC(c3cccc(NC(=O)CC(c4ccccc4)c4ccccc4)c3)=NO2)CN1C(=O)[C@@H]1CCC(=O)N1 (some centres undefined)	.	3296	29	.	.	.	-9
CCN=C1SC(CC(=O)NC(N)=O)C(=O)N1CC (centres undefined)	0	4206	-24	6	10	2.6	5
CCOc1ccc(S(=O)(=O)N2CCN(Cc3ccc4c(c3)OCO4)CC2)cc1C	8	3584	1	6	12	1.0	-21
COc1ccc(CN2CCN(C(=O)c3ccc(-c4ccccc4)cc3)CC2)c(OC)c1OC	-5	4003	-4	-4	0	-2.6	-24
Cc1ccc2nc(-c3cccc(S(=O)(=O)N4CCCC4)c3)cn2c1	.	5052	-8	.	.	.	-39
Cc1ccc(S(=O)(=O)Nc2ccc(C(=O)Nc3cc(C)on3)cc2)cc1	11	8176	1	-1	1	7.5	-15
Cc1cccc2cc3cccc(C)c3nc12	.	3996	0	.	.	.	-17
CCOc1ccccc1N(CC(=O)NC(C)(C)C)C(=O)CCC(=O)Nc1nccs1	2	3856	-13	-5	-4	1.1	10
COc1ccc(CN(C)CC(O)COC(c2ccc(OC)cc2)c2ccc(OC)cc2)cc1 (centres undefined)	-1	3960	4	-5	15	0.7	-10

Two of these compounds in a different format.
COc1ccc(CN2CCN(C(=O)c3ccc(-c4ccccc4)cc3)CC2)c(OC)c1OC
  Sa ugtP lethal: -5; Bead autofluor: 4003; BJeLR viability: -4; Mtb hypoxia rep: -4; Mtb hypoxia rep growth: 0; Sa RN4220 lethal: -2.6; PrP 5UTR inh: -24

Cc1ccc2nc(-c3cccc(S(=O)(=O)N4CCCC4)c3)cn2c1
  Sa ugtP lethal: .; Bead autofluor: 5052; BJeLR viability: -8; Mtb hypoxia rep: .; Mtb hypoxia rep growth: .; Sa RN4220 lethal: .; PrP 5UTR inh: -39

(cont.)
SMILES	Sa ugtP lethal	Bead autofluor	BJeLR viability	Mtb hypoxia rep	Mtb hypoxia rep growth	Sa RN4220 lethal	PrP 5UTR inh
C=CCOc1ccccc1C=NNC(=O)Cc1ccccc1	7	.	.	12	1	4.3	.
C#CCOCCOCCOCCNc1nc(N2CCN(C(=O)C(C(C)C)n3cc(CCO)nn3)CC2)nc(N2CCN(C(=O)C(C(C)CC)n3cc(CCCN=C(N)N)nn3)CC2)n1 (centres undefined)	-12	.	.	-2	18	0.6	.
O=C(CN1CCN(c2ccccc2)CC1)Nc1scc2c1c(=O)oc1ccccc12	7	.	7	7	0	1.6	-12
COc1ccc(S(=O)(=O)N(C)C[C@H]2Oc3ccc(NC(=O)c4ccncc4)cc3C(=O)N([C@H](C)CO)C[C@@H]2C)cc1	-5	3476	.	-8	5	1.0	4
CC(=O)Nc1ccc(S(=O)(=O)Nc2nc3ccccc3nc2Nc2cccc(S(N)(=O)=O)c2)cc1	2	4693	-7	-5	-5	1.7	-3
CC1CC(C)(C)NC(=S)N1CC(=O)NCc1ccccc1Cl (centres undefined)	2	2240	-3	0	7	-1.8	-8
CCn1c(C)nc2cc(C(=O)NNC(=O)CN(C)S(=O)(=O)c3ccc(NC(C)=O)cc3)ccc21	1	5095	.	3	10	4.9	-11
NC1=NN=C(c2ccc3c(c2)OCCO3)CS1	16	4469	9	13	6	5.0	5
COc1cccc(C=NNC(=O)CNC(=O)COc2ccccc2)c1O	7	.	.	14	14	1.1	.
COc1ccc(CNC(=O)C2CCCN(c3nccc(C)n3)C2)cc1 (centres undefined)	.	7273	-2	.	.	.	-17
CC(NC(=O)CCc1c[nH]c2ccccc12)c1ccccc1 (centres undefined)	8	3463	-1	-5	11	1.0	-23
CCc1ccc(NC(=O)CC2NCCNC2=O)cc1 (centres undefined)	2	11220	-15	3	14	-0.6	-9
N#CCCn1nc(Cc2cccc3ccccc23)c(C#N)c1N	4	3639	-4	-1	5	7.3	-2
CCOc1cc(OCC)cc(C(=O)NC(=S)Nc2cccc(C(F)(F)F)c2)c1	5	2656	3	.	.	0.2	-14
Cc1ccnc(NC(=O)CCC(=O)N(CC(=O)NCc2ccc(F)cc2)c2cccc(F)c2)c1	3	3597	2	1	-2	-1.8	-23
CN(CC(=O)Nc1ccc(Cl)cc1)C(=O)CNC(=O)c1ccc2ccccc2c1	-2	5575	-10	6	6	1.7	-48
COC(=O)C=C1CCC2C3CCC4=CC(=O)CCC4(C)C3C(=O)CC12C (centres undefined)	4	3768	.	19	11	4.9	-38
Oc1ccc2c3c1OC1C(O)CC[C@@]4(O)C(C2)N(CC2CCC2)CC[C@]314 (some centres undefined)	-2&1	.	.	12&10	3&4	8.2&6.8	.
CCN(CC)C(=O)[C@H]1C[C@H](CC(=O)NC/C=C(\C)CCC=C(C)C)C(=O)N2CCc3c([nH]c4cc(-c5ccco5)ccc34)[C@]12C	-3	3420	.	-5	3	-8.2	-7
Nc1nc(-c2ccc([N+](=O)[O-])cc2)cc(=O)[nH]1	6	3055	.	15	11	4.1	-19
O=C1CC(NS(=O)(=O)c2cccnc2)CN1c1ccc(F)cc1 (centres undefined)	1	.	-14	-1	-3	1.6	-17
CC(C)C[C@H](NC(=O)Nc1ccc(S(N)(=O)=O)cc1)C(=O)O	10	7191	0	16	3	1.6	-6
COc1ccc(S(=O)(=O)N2CCCC(C(=O)NCC3CCCO3)C2)cc1C (centres undefined)	1	5064	0	5	2	0.7	-11
CN(C)/C=C1\N=C(c2ccc(Cl)cc2Cl)OC1=O	-3	10090	17	7	3	5.7	-55
CC(CCc1ccccc1)NC(=O)CCCn1ncn2c(cc3occc32)c1=O (centres undefined)	2	4390	-3	8	8	2.6	10

An excerpt of these results, as a markdown table.
| smiles | Sa ugtP lethal | Bead autofluor | BJeLR viability | Mtb hypoxia rep | Mtb hypoxia rep growth | Sa RN4220 lethal | PrP 5UTR inh |
| --- | --- | --- | --- | --- | --- | --- | --- |
| C=CCOc1ccccc1C=NNC(=O)Cc1ccccc1 | 7 | . | . | 12 | 1 | 4.3 | . |
| C#CCOCCOCCOCCNc1nc(N2CCN(C(=O)C(C(C)C)n3cc(CCO)nn3)CC2)nc(N2CCN(C(=O)C(C(C)CC)n3cc(CCCN=C(N)N)nn3)CC2)n1 (centres undefined) | -12 | . | . | -2 | 18 | 0.6 | . |
| O=C(CN1CCN(c2ccccc2)CC1)Nc1scc2c1c(=O)oc1ccccc12 | 7 | . | 7 | 7 | 0 | 1.6 | -12 |
| COc1ccc(S(=O)(=O)N(C)C[C@H]2Oc3ccc(NC(=O)c4ccncc4)cc3C(=O)N([C@H](C)CO)C[C@@H]2C)cc1 | -5 | 3476 | . | -8 | 5 | 1.0 | 4 |
| CC(=O)Nc1ccc(S(=O)(=O)Nc2nc3ccccc3nc2Nc2cccc(S(N)(=O)=O)c2)cc1 | 2 | 4693 | -7 | -5 | -5 | 1.7 | -3 |
| CC1CC(C)(C)NC(=S)N1CC(=O)NCc1ccccc1Cl (centres undefined) | 2 | 2240 | -3 | 0 | 7 | -1.8 | -8 |
| CCn1c(C)nc2cc(C(=O)NNC(=O)CN(C)S(=O)(=O)c3ccc(NC(C)=O)cc3)ccc21 | 1 | 5095 | . | 3 | 10 | 4.9 | -11 |
| NC1=NN=C(c2ccc3c(c2)OCCO3)CS1 | 16 | 4469 | 9 | 13 | 6 | 5.0 | 5 |
| COc1cccc(C=NNC(=O)CNC(=O)COc2ccccc2)c1O | 7 | . | . | 14 | 14 | 1.1 | . |
| COc1ccc(CNC(=O)C2CCCN(c3nccc(C)n3)C2)cc1 (centres undefined) | . | 7273 | -2 | . | . | . | -17 |
| CC(NC(=O)CCc1c[nH]c2ccccc12)c1ccccc1 (centres undefined) | 8 | 3463 | -1 | -5 | 11 | 1.0 | -23 |
| CCc1ccc(NC(=O)CC2NCCNC2=O)cc1 (centres undefined) | 2 | 11220 | -15 | 3 | 14 | -0.6 | -9 |
| N#CCCn1nc(Cc2cccc3ccccc23)c(C#N)c1N | 4 | 3639 | -4 | -1 | 5 | 7.3 | -2 |
| CCOc1cc(OCC)cc(C(=O)NC(=S)Nc2cccc(C(F)(F)F)c2)c1 | 5 | 2656 | 3 | . | . | 0.2 | -14 |
| Cc1ccnc(NC(=O)CCC(=O)N(CC(=O)NCc2ccc(F)cc2)c2cccc(F)c2)c1 | 3 | 3597 | 2 | 1 | -2 | -1.8 | -23 |
| CN(CC(=O)Nc1ccc(Cl)cc1)C(=O)CNC(=O)c1ccc2ccccc2c1 | -2 | 5575 | -10 | 6 | 6 | 1.7 | -48 |

Other results.
SMILES	Sa ugtP lethal	Bead autofluor	BJeLR viability	Mtb hypoxia rep	Mtb hypoxia rep growth	Sa RN4220 lethal	PrP 5UTR inh
O=C(CCC(=O)OCC(=O)c1ccc(Br)cc1)Nc1ccc(Br)c2cccnc12	-3	18928*	-2	1	3	1.0	-22
COC(=O)C1=C(N)Oc2cc(C)n(Cc3ccco3)c(=O)c2C1c1cccc(Cl)c1 (centres undefined)	11	2980	9	9	10	10	-11
CSc1cccc(N2CC(C(=O)N(CC(C)C)c3c(N)n(Cc4ccccc4)c(=O)[nH]c3=O)CC2=O)c1 (centres undefined)	-4	6756	-1	4	3	-2.0	-6
Cc1ccc(CNC(=O)CCCn2c(=O)c3ccccc3n(CC(=O)NC3CCCC3)c2=O)cc1	-1	2230	2	.	.	2.1	-12
CC(C)N(Cc1nc(-c2ccc(Cl)cc2)no1)C(=O)CCCN1C(=O)c2ccccc2C1=O	1	4391	2	3	3	-4.6	-2
O=C(COc1ccccc1Cl)NCCCNC(=O)c1ccco1	5	3808	-2	-5	6	6.3	-13
CCOC(=O)CC(=O)CSc1nc2c(C)c(C)ccc2cc1C	6	9510	-4	8	14	5.7	-24
COc1cc(NC(=O)c2ccc(Cl)cc2)c(Cl)cc1NC(=O)c1cccnc1	-13	5753	2	18	9	8.9	-20
Cc1csc2c(SCC(=O)NNC(=O)C(Cl)Cl)ncnc12	1	6599	-7	8	-4	-0.7	-13
CCn1c(SCC(=O)N2c3ccccc3CC2C)nnc1-c1ccco1 (centres undefined)	0	3147	2	-1	9	-1.4	-28
CCOC(=O)C1CCCN(C(=O)c2ccc3nc(-c4ccccc4)c(-c4ccccc4)nc3c2)C1 (centres undefined)	9	5529	6	-5	5	1.9	9
CC1CN(C(C)CO)C(=O)c2cc(NS(=O)(=O)c3ccc(F)cc3)ccc2OC1CN(C)S(=O)(=O)c1cccs1 (centres undefined)	3	.	.	1	4	1.7	.
Nc1ccc(CSc2ccc(Cl)cc2)cc1	-2	3511	7	10	-7	5.4	1
CCOc1ccccc1-n1c(O)c(C=NCCCN(CC)CC)c(=O)[nH]c1=O	-1	2673	-4	12	12	4.6	-19
